UCH37 inh – blocks the human deubiquitinase UCH37; Q9Y5K5; purified proteasome/UCH37, Ub-AMC cleavage fluorescence; inhibition, % (test concentration not listed); 330,000 tested, 0.33% active; AID 588478;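 active means mean of two replicates above 20%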;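 further: 0% = compound-free wells with enzyme and 100% = wells lacking proteasome; stock transfer was 100 nL into about 20 µL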
Target sequence (Q9Y5K5 whole entry, looked up): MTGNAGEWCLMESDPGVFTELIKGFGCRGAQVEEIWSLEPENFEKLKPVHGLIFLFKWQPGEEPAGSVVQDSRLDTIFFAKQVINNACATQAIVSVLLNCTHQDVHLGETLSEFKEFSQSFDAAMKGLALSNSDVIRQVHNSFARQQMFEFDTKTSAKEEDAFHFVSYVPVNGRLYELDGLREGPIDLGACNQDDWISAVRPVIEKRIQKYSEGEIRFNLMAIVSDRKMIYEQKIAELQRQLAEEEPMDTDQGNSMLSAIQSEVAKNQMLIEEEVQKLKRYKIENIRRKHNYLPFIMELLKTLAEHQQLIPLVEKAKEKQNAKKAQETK
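Signal – fluorescence, ex 355 nm, em 460 nm · System – Proteasome-bound UCH37 · Input – 0.15 nM proteasome as dispensed · Timing – 30 min preincubation with enzyme, 25 min cleavage at room temperature · Read-out basis – percent inhibition of cleavage signal versus uninhibited and no-proteasome wells · Medium – Tris-HCl pH 7.4 with ATP-MgCl2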
FGF22 binding – binders of recombinant human FGF22 by thermal shift; 340,000 tested, 1.5% active; SYPRO orange fluorescence; percent of sucrose octasulfate shift, DMSO zero; calls only at 9.99 µM; Q9HCT0; AID 651658;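 active means melting point raised past a set limit in the mean and every replicate; three in four hits are not shown here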
Target sequence (Q9HCT0 whole entry, looked up): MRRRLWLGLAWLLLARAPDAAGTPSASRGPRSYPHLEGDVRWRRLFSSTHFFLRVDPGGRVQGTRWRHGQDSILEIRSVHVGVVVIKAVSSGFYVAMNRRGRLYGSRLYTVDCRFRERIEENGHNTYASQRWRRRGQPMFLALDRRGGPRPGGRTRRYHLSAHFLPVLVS
Beta cell apopt – beta cell apoptosis inhibition; INS-1E cytokine-induced death, ATP luminescence, 48 h; percent of positive-control rescue, neutral wells zero; protection from apoptosis, % (no concentration beside the values); 300,000 tested, 0.8% active; AID 435005;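 active means all replicates at 75% or more, or half of them and the mean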;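 further: 0% = cytokine-treated negative control wells and 100% = positive control rescue; higher means more ATP so stronger rescue from cytokine killing; wells of about 40 µL received 100 nL stock; the first replicate is given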
Bfl-1 A1 inh – inhibitors of the anti-apoptotic protein A1, read as caspase activation. AID 2462. caspase activation, % (concentration not given with the values). MEF A1-2A-BIM cells, Caspase-Glo 3/7 luminescence, 3 h; percent of clofoctol response, vehicle zero. 330,000 tested, 0.066% active;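 active means over half of replicate activation scores above 10%, or exactly half above 10 with the replicate mean above 10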;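 further: wells of about 30 µL received 50 nL stock; many hits fall short of the cut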
Ecoli growth – blocks Escherichia coli growth; OD600, 23 h; active compounds read low; 330,000 tested, 0.21% active; AID 1053175; OD600 absorbance (test concentration not listed);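 active means OD600 absorbance below the run mean of sample wells minus 3.6 SD, in any replicate, cut at about 0.56 in these data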;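 further: stock transfer was 300 nL into about 60 µL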
MLL AF4-AF9 inh – inhibitors of human MLL-AF4/AF9 interaction; P42568; AlphaScreen, biotin-AF4 peptide binding to FLAG-AF9; inhibition, % at 10 µM; 350,000 tested, 0.47% active; AID 651704;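 active means every replicate reaching a set inhibition limit, whatever the replicate mean, cut at about 25% in these data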;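 further: 0% = plate neutral control median and 100% = total signal loss; the record names both 10 and 1 µM as test concentration; the first replicate is given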
Target sequence (P42568 whole entry, looked up): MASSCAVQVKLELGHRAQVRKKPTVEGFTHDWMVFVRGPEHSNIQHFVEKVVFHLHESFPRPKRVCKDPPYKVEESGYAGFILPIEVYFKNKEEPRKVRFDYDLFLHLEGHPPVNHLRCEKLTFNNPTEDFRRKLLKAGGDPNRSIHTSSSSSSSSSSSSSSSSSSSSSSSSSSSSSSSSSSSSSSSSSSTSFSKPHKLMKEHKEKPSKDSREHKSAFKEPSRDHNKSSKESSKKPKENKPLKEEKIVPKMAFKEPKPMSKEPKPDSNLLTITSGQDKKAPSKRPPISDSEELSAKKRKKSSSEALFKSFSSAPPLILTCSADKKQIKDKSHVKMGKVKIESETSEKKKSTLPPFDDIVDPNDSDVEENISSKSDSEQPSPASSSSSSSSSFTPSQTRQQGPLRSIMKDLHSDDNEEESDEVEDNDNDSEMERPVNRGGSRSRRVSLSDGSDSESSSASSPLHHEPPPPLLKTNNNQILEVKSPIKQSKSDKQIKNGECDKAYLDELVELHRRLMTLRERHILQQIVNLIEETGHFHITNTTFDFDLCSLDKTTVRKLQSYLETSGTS
T cruzi repl – blocks replication of Trypanosoma cruzi; T. cruzi beta-gal in NIH3T3, luminescence, 90 h; inhibition, % (concentration not given with the values); 300,000 tested, 1.4% active; AID 1885;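 active means mean inhibition across valid replicates above about 55%, limit read from the data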;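 further: signal also drops with host cell toxicity which is not excluded here; 0% = plate median of DMSO wells and 100% = zero luminescence signal; higher percent means less beta-gal luminescence so fewer parasites; stock transfer was 50 nL into about 50 µL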
rRNA inh HTS – selective bacterial rRNA inhibition in E. coli; E. coli WT GFP vs humanized-ribosome RFP mutants, fluorescence, 24 h; active compounds read low; DMSO median 0, no signal -100; GFP signal change (wild-type ribosome), % (no concentration beside the values); 350,000 tested, 1.6% active;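 active means significant combined selectivity score with lowered wild-type GFP, culture density cut under 30%, mutant RFP and density less affected; inactive means any of these conditions unmet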; further: one replicate is shown; some compounds called inactive have numbers as strong as hits
rRNA inh HTS OD600 – further read-out of rRNA inh HTS, marked with its call; OD600 change, %; measured here: OD600 growth;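 optical density of the mix in the first replicate; 0 = DMSO median and -100 = no signal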
rRNA inh HTS RFP – further read-out of rRNA inh HTS, marked with its call; RFP signal change, %; measured here: RFP humanized mutant strains;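 first replicate; 0 = DMSO median and -100 = no signal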
Numbers without * were called inactive. Not all compounds are listed; the hit share may differ from the screen's.

For O=C(NCC1CC1)c1onc(CSc2ccc(F)c(F)c2)c1C(=O)NCC1CC1 the results were UCH37 inh -1.2, FGF22 binding inactive, Beta cell apopt -6, Bfl-1 A1 inh -0.7, Ecoli growth 0.67, MLL AF4-AF9 inh 0.2, T cruzi repl -6, rRNA inh HTS -14, rRNA inh HTS OD600 -41 and rRNA inh HTS RFP -13.
Screening O=C(COC(=O)c1ccccc1NC(=O)c1ccco1)Nc1ccc2c(c1)OCO2 returned UCH37 inh -1.6, Beta cell apopt -1, Bfl-1 A1 inh 0.9, Ecoli growth 0.72 and T cruzi repl 10.
Screening CCOC(=O)c1cccc(NC(=O)c2cncc(Br)c2)c1 returned UCH37 inh 2.4, Beta cell apopt -12, Bfl-1 A1 inh -2.9, Ecoli growth 0.63 and T cruzi repl 1.
For CCCCc1c(C)nc2ccc(C)cc2c1SCCC(=O)O the results were UCH37 inh 2.6, FGF22 binding inactive, Beta cell apopt -10, Bfl-1 A1 inh 0.3, Ecoli growth 0.68, MLL AF4-AF9 inh -2.5, T cruzi repl 7, rRNA inh HTS -32, rRNA inh HTS OD600 -48 and rRNA inh HTS RFP -13.
CCOc1cccc(/C=C2\NC(=S)N(c3ccccc3)C2=O)c1O was read as FGF22 binding inactive, Beta cell apopt 9, Bfl-1 A1 inh -9.2, MLL AF4-AF9 inh 2.1, T cruzi repl -2, rRNA inh HTS -21, rRNA inh HTS OD600 -36 and rRNA inh HTS RFP -3.0.
Screening Cc1ccc(C(=O)Nc2cccc(C(=O)O)c2)cc1 returned UCH37 inh 0.1, Beta cell apopt 7, Bfl-1 A1 inh -8.2, Ecoli growth 0.69 and T cruzi repl -2.
Screening c1ccc(OCCSc2ncnc3nc[nH]c23)cc1 returned UCH37 inh 6.1, FGF22 binding inactive, Beta cell apopt -2, Bfl-1 A1 inh 0.5, Ecoli growth 0.66, MLL AF4-AF9 inh -27, T cruzi repl -14, rRNA inh HTS -12, rRNA inh HTS OD600 -10 and rRNA inh HTS RFP -10.
COc1cc(C(=O)O)cc(OC)c1OCc1cc(C(=O)O)oc1C was read as UCH37 inh -0.1, Beta cell apopt -7, Bfl-1 A1 inh -0.5, Ecoli growth 0.7 and T cruzi repl 0.
`Cc1cc(C)nc(-n2nc(C)cc2NC(=O)CN2CCCC(C)C2)n1` (centres undefined) gave UCH37 inh 5.8, Bfl-1 A1 inh -1.1, Ecoli growth 0.69 and T cruzi repl -1.
For CC(C)[C@H](NC(=O)c1c(F)cccc1F)C(=O)N1CCN(c2ccc(F)cc2)CC1 the results were UCH37 inh 2.9, FGF22 binding inactive, Beta cell apopt -4, Bfl-1 A1 inh -2.8, Ecoli growth 0.67, MLL AF4-AF9 inh -1.1, T cruzi repl 5, rRNA inh HTS 9, rRNA inh HTS OD600 9 and rRNA inh HTS RFP 1.3.
Cc1cc(C(=O)Nc2cccc(NC(=O)c3ccco3)c2)ccc1[N+](=O)[O-] was read as UCH37 inh -1.0, FGF22 binding inactive, Beta cell apopt -5, Bfl-1 A1 inh -0.4, Ecoli growth 0.7, MLL AF4-AF9 inh -0.8, rRNA inh HTS -6, rRNA inh HTS OD600 -5 and rRNA inh HTS RFP 0.1.
For Cc1onc(-c2ccccc2Cl)c1C(=O)NCc1ccc(S(N)(=O)=O)cc1 the results were UCH37 inh -0.2, Beta cell apopt 1, Bfl-1 A1 inh 1.5, Ecoli growth 0.78 and T cruzi repl -5.
For CCCOn1c(-n2nc(C)cc2C)nc2ccccc2c1=O the results were UCH37 inh 1.8, Beta cell apopt -1, Ecoli growth 0.67 and T cruzi repl -8.
`CCCOC(=O)C1C2C=CC(C3CC23)C1C(=O)OCC(=O)c1ccccc1` (centres undefined) gave UCH37 inh 2.4, Beta cell apopt -5, Bfl-1 A1 inh -0.2, Ecoli growth 0.7 and T cruzi repl 1.
CC1CCN(c2nc3ccc(C(=O)O)cc3s2)CC1 was read as UCH37 inh -2.4, Beta cell apopt 2, Bfl-1 A1 inh -7.0, Ecoli growth 0.77 and T cruzi repl -11.
Screening O=C(Nc1cccc(F)c1)C1CCCCC1 returned UCH37 inh 3.2, FGF22 binding inactive, Beta cell apopt -2, Bfl-1 A1 inh 1.8, Ecoli growth 0.65, MLL AF4-AF9 inh -1.8, rRNA inh HTS 4, rRNA inh HTS OD600 -2 and rRNA inh HTS RFP -3.3.
CCCn1c(=O)[nH]c(=O)c2c1nc(-c1ccc(C(F)(F)F)cc1)n2CCOC was read as UCH37 inh -24, FGF22 binding inactive, Beta cell apopt 4, Bfl-1 A1 inh 0.4, Ecoli growth 0.68, MLL AF4-AF9 inh -8.4, T cruzi repl 11, rRNA inh HTS 1, rRNA inh HTS OD600 10 and rRNA inh HTS RFP -2.1.
`COc1ccc(C)cc1NC(=O)COC(=O)C1CC1` gave UCH37 inh 3.5, Beta cell apopt -9, Bfl-1 A1 inh 0.8, Ecoli growth 0.7 and T cruzi repl -10.
`O=C(NCCO)c1ccc(Cl)c(Cl)c1` gave UCH37 inh 1.5, Beta cell apopt -4, Bfl-1 A1 inh -0.2, Ecoli growth 0.69, MLL AF4-AF9 inh 0.6 and T cruzi repl 2.
O=C(CCn1c(=O)oc2ccccc21)N1CCN(c2ccc(F)cc2)CC1 was read as UCH37 inh 6.4, FGF22 binding inactive, Beta cell apopt -5, Bfl-1 A1 inh -1.1, Ecoli growth 0.72, MLL AF4-AF9 inh -6.3, T cruzi repl -11, rRNA inh HTS 1, rRNA inh HTS OD600 -17 and rRNA inh HTS RFP -4.3.
COc1ccc(NC(=O)CCc2c(C)nn(-c3ccc(N4CCOCC4)nn3)c2C)cc1 was read as UCH37 inh 0.0, FGF22 binding inactive, Beta cell apopt -1, Bfl-1 A1 inh -0.6, Ecoli growth 0.66, MLL AF4-AF9 inh -0.4, T cruzi repl -9, rRNA inh HTS 5, rRNA inh HTS OD600 2 and rRNA inh HTS RFP 0.7.
For CC(=O)N1CN(C2CCCC2)Cc2c1sc1c2CCCC1 the results were UCH37 inh 0.6, Beta cell apopt -7, Bfl-1 A1 inh -0.7, Ecoli growth 0.64 and T cruzi repl -8.
COCC(=O)N(Cc1nc2sc(C)c(C)c2c(=O)[nH]1)C1CCCCC1 was read as UCH37 inh -7.9, FGF22 binding inactive, Beta cell apopt 2, Bfl-1 A1 inh -0.3, Ecoli growth 0.71, MLL AF4-AF9 inh -2.0, T cruzi repl 4, rRNA inh HTS -4, rRNA inh HTS OD600 14 and rRNA inh HTS RFP 6.7.
CCOC(=O)N1CCN(Cc2nnc(-c3ccccc3Cl)o2)CC1 was read as UCH37 inh 3.0, FGF22 binding inactive, Beta cell apopt -2, Bfl-1 A1 inh -0.3, Ecoli growth 0.6, MLL AF4-AF9 inh 1.4, T cruzi repl 1, rRNA inh HTS 1, rRNA inh HTS OD600 2 and rRNA inh HTS RFP 2.7.
Cc1cc(C)n(-c2nc3ccccc3nc2NCCc2ccccc2)n1 was read as UCH37 inh -51, FGF22 binding inactive, Beta cell apopt 1, Bfl-1 A1 inh 0.2, Ecoli growth 0.69, MLL AF4-AF9 inh -11, T cruzi repl 12, rRNA inh HTS 5, rRNA inh HTS OD600 -3 and rRNA inh HTS RFP -1.8.
`COc1cccc(/C=N/Nc2ncnc3c2ncn3Cc2ccccc2)c1O` gave FGF22 binding inactive, Bfl-1 A1 inh -1.3, MLL AF4-AF9 inh 0.0, T cruzi repl 34, rRNA inh HTS 8, rRNA inh HTS OD600 11 and rRNA inh HTS RFP 1.1.
CCOc1ccc2nc(SCC)[nH]c2c1 was read as UCH37 inh 4.2, Bfl-1 A1 inh -0.2, Ecoli growth 0.64 and T cruzi repl -4.
For O=C(CSc1nc2sc3c(c2c(=O)n1-c1ccccc1)CCCC3)NCc1ccco1 the results were UCH37 inh -15, FGF22 binding inactive, Ecoli growth 0.8, MLL AF4-AF9 inh -6.5, T cruzi repl 35, rRNA inh HTS 0, rRNA inh HTS OD600 3 and rRNA inh HTS RFP 0.3.
CCOC(=O)c1ccc(Nc2ncnc3c2cnn3C)cc1 was read as UCH37 inh -15, Beta cell apopt 5, Bfl-1 A1 inh 0.1, Ecoli growth 0.68, T cruzi repl -30, rRNA inh HTS 7, rRNA inh HTS OD600 10 and rRNA inh HTS RFP -0.4.
`CC(C)(C)c1ccc(OCC(O)CN2CCN(c3ccccn3)CC2)cc1` (centres undefined) gave UCH37 inh 0.5, FGF22 binding inactive, Bfl-1 A1 inh -0.9, Ecoli growth 0.65, MLL AF4-AF9 inh 1.4, T cruzi repl 29, rRNA inh HTS -17, rRNA inh HTS OD600 -23 and rRNA inh HTS RFP -1.3.
CCC(CC)N1CCN(CC2CC=CCC2)CC1 (centres undefined) was read as UCH37 inh 1.4, FGF22 binding inactive, Beta cell apopt -1, Bfl-1 A1 inh 0.8, Ecoli growth 0.69, MLL AF4-AF9 inh 0.1, T cruzi repl 16, rRNA inh HTS 15, rRNA inh HTS OD600 18 and rRNA inh HTS RFP 0.5.
For NC(=O)/C(=C/c1cccnc1)NC(=O)c1ccccc1 the results were UCH37 inh 3.6, FGF22 binding inactive, Beta cell apopt -6, Bfl-1 A1 inh 1.2, Ecoli growth 0.69, MLL AF4-AF9 inh -4.8, T cruzi repl 0, rRNA inh HTS 30, rRNA inh HTS OD600 17 and rRNA inh HTS RFP 2.5.
`CCCC(C(=O)OCCN(CC)CC)(c1ccccc1)c1ccccc1` gave UCH37 inh 6.1, FGF22 binding inactive, Beta cell apopt -3, Bfl-1 A1 inh -0.9, Ecoli growth 0.68, MLL AF4-AF9 inh 15, T cruzi repl 8, rRNA inh HTS -55, rRNA inh HTS OD600 -74 and rRNA inh HTS RFP -16.
For COc1ccc(CCCc2nnc(SCC(=O)Nc3nc(C)cs3)n2C)cc1C the results were UCH37 inh 3.3, Beta cell apopt 0, Bfl-1 A1 inh 0.7, Ecoli growth 0.7 and T cruzi repl -2.
For NC(=O)NCc1cccc(Cl)c1 the results were UCH37 inh 0.8, Beta cell apopt 0, Bfl-1 A1 inh -0.3, Ecoli growth 0.67 and T cruzi repl -34.
For Cc1ccc(CN2CC(C(=O)N3CCN(S(=O)(=O)c4ccc(C)cc4C)CC3)CC2=O)cc1 (centres undefined) the results were UCH37 inh 3.3, FGF22 binding inactive, Beta cell apopt -2, Bfl-1 A1 inh 1.7, Ecoli growth 0.65, MLL AF4-AF9 inh -0.7, rRNA inh HTS -4, rRNA inh HTS OD600 -11 and rRNA inh HTS RFP 4.0.
CSCCC(NS(=O)(=O)c1ccc(Cl)cc1)C(=O)OCC(=O)NC1CC1 (centres undefined) was read as UCH37 inh 2.9, Beta cell apopt -1, Bfl-1 A1 inh 0.9, Ecoli growth 0.67 and T cruzi repl -2.
`CC(=O)c1cccc(NC(=S)N2CCN(S(=O)(=O)c3ccc(F)cc3)CC2)c1` gave FGF22 binding inactive, Beta cell apopt 5, Bfl-1 A1 inh 0.5, MLL AF4-AF9 inh -1.9, T cruzi repl 3, rRNA inh HTS -9, rRNA inh HTS OD600 -3 and rRNA inh HTS RFP 0.3.
Screening Cc1nc2ccccc2n1CC(=O)N/N=C/c1cccs1 returned FGF22 binding inactive, Beta cell apopt -9, Bfl-1 A1 inh 0.6, MLL AF4-AF9 inh 3.7, T cruzi repl -29, rRNA inh HTS 6, rRNA inh HTS OD600 0 and rRNA inh HTS RFP -1.6.

From PubChem BioAssay
